NPYLR7 ag: agonists of mosquito NPYLR7 receptor, primary screen, cell-based, Aedes aegypti, calcium fluorescence, mosquito biting behavior; Aedes aegypti neuropeptide Y-like receptor 7 (NPYLR7); HEK293T NPYLR7/Galpha15, GCaMP6s calcium fluorescence; activation, % at 10 µM; hit rate 0.15% among 270,000; AID 1259423, 2018; in the data active = activation above about 40%;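 also: 0% = vehicle and 100% = reference agonist at the receptor; some compounds past the cut are filed as inactive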
NPYLR7 ag max-min: recorded beside NPYLR7 ag, whose call it bears; activation, %; measured here: Max-Min RFU normalised activation; some inactives read as strong as hits;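 span of the calcium signal over five minutes; 0% = vehicle and 100% = native peptide agonist; compound fluorescence can raise it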
* = called active by the depositor. An excerpt, so the mix of outcomes need not match the whole.

SMILES	NPYLR7 ag	NPYLR7 ag max-min
COc1ccc(-c2ccc(=O)n(CCNC(=O)Nc3ccccc3F)n2)cc1OC	-7	0
Cc1ccc(C)c(C(C)CNC(=O)C2CCN(S(=O)(=O)/C=C/c3ccccc3)CC2)c1 (stereo not given)	9	3
COc1cccc(Cc2c(C)nc(C)nc2N2CCN(S(=O)(=O)c3ccc(Cl)cc3)CC2)c1	8	13
CC(c1ccc(S(N)(=O)=O)cc1)N(C)C(=O)c1ccc2ccccc2n1 (stereo not given)	-2	-4
O=C(Cc1ccccc1[N+](=O)[O-])N1CCOCC1	-1	-3
CC1CN(C(C(=O)NC2CCN(C3CC3)C2)C(C)C)CC(C)O1 (stereo not given)	6	5
CC(=O)C1=NN(c2ccccc2)C2(N3CCOCC3)CCCC12 (stereo not given)	0	36
C1CCCCCC(NCCN2CCNCC2)CCCCC1	-1	-3
CNc1cc(C(=O)N2CCCC2c2nc(-c3ccccc3)no2)ccn1 (stereo not given)	1	-4
CCOC(=O)C(=O)N1CCCN(Cc2cc(=O)c(OCc3ccc(C(F)(F)F)cc3)co2)CC1	23	23
C#C[C@]1(O)CCC2C3CCC4=C(CCC(=O)C4)C3CC[C@@]21C (stereo not given in full)	-8	-11
CC(C)CCc1nc(N2CCN(C(=O)NCc3ccccc3)CC2)c2cnn(-c3cccc(Cl)c3)c2n1	28	33
Cc1cccc(C=C2SC(=S)N(C)C2=O)c1	14	14
CC(NC(C)c1ccc(Cl)cc1Cl)C(=O)Nc1ccnn1C(C)C (stereo not given)	8	7
COc1cccc(CN2CCCC3(CCN(C(=O)c4n[nH]c5c4CCC5)C3)C2)c1 (stereo not given)	5	3
O=C(NC1CCc2[nH]c3ccc(Br)cc3c2C1)C1CCCO1 (stereo not given)	11	13
Cn1cc(/C=C/C(=O)N2CCCC(CO)(Cc3ccccc3)C2)cn1 (stereo not given)	8	14
COc1ccccc1Oc1ncccc1CNCc1ccccc1Cl	13	9
O=C(Nc1ccc(C(F)(F)F)cc1)c1nc(N2CCCC2)ncc1Cl	0	-1
Cc1noc(C)c1CCC(=O)Nc1cccc2c1CCCC2	5	2
Cc1nnc(SCC(=O)Nc2sc3c(c2C(N)=O)CCC3)s1	5	2
O=C(Cn1nc2c(c1NC(=O)c1cccc3ccccc13)CSC2)NCC1CCCO1 (stereo not given)	1	10
CC(C)Cn1c(SCc2cn3ccsc3n2)nc2sc3c(c2c1=O)CCCC3	2	1
CN1C(=O)N(C)C2(CCN(C(=O)Cc3ccc(Cl)cc3)CC2)C1=O	-10	-9
CCCNC(=O)Cn1c(-n2nc(C)cc2C)nc(CCC)cc1=O	-2	-2
Cn1c(N)c(-c2nc(-c3ccc4c(c3)OCO4)c(C(=O)C(C)(C)C)s2)c(=O)n(C)c1=O	0	-2
CC1CC(C)CN(c2ncnc(N)c2[N+](=O)[O-])C1 (stereo not given)	10	23
CCn1nnc2c(Nc3ccc(OC(F)F)cc3)ncnc21	16	23
COc1ccc(CCN(Cc2ccc(C)o2)C(=O)CN(CCN2CCOCC2)C(=O)c2cccc(Br)c2)cc1OC	-4	-4
O=S(=O)(c1ccccc1F)N1CCN(c2nccc(-c3ccc(Oc4ccccc4)cc3)n2)CC1	5	-1
COC(=O)c1ccc(CN2CCN(c3cccc(OC)c3)C(=O)C2C)cc1 (stereo not given)	5	11
COc1ccc(CCN(C)C(=O)c2cc(C)n3nc(C(C)(C)C)cc3n2)cc1OC	2	11
CCN1CCN(CC(C)CNC(=O)N2CCSC(C)C2C)CC1 (stereo not given)	0	18
COCCN(Cc1ccsc1)C(=O)[C@@H]1C[C@H](N)CN1C	-13	-11
CCOc1ccc(C(=O)c2nc3c(n2O)CCCCC3)cc1	15	9
CC(C)(C)OC(=O)NC1CCN(C(=O)CCc2cccc(F)c2F)CC1	5	4
O=C(Nc1ccc(-c2ccc(N3CCCC3)nn2)cc1)c1ccc(F)cc1	2	1
CCOC(=O)C1(C)CCCCN1C(=O)c1cccc(C#N)c1 (stereo not given)	3	1
COCCn1c(C)cc(O)c(C(c2cccnc2)N2CCC(C)CC2)c1=O (stereo not given)	6	0
CCc1nc2ccc(C(=O)N3CCNC(=O)C3)cn2c1N(C)Cc1cccs1	3	-7
OC[C@@]12CCC[C@@H]1CN(Cc1cc3n(n1)CCCNC3)C2	4	-2
COc1ccccc1CN(CCc1c[nH]c2ccccc12)C(=O)CN(C(=O)CCc1ccccc1)C1CC1	4	13
CN1C(=O)CN(CC(=O)N2CCC(N)CC2)C(=O)c2ccccc21	13	2
Cc1nc(C(C)C)ncc1C(=O)NC(C)c1nncn1C(C)C (stereo not given)	6	4
CCN1CCN(CCCNC(=O)C(=O)c2c(C)n(C)c3ccccc23)CC1	19	14
Cc1ccc(CN(CCN2CCOCC2)CC(O)COCc2ccco2)o1 (stereo not given)	1	10
O=C(Nc1nc2c(s1)CCCC2)c1ccc2c(c1)OCO2	6	12
CCOc1cc(Br)ccc1S(=O)(=O)N1CCC(C(N)=O)CC1	7	5
CCSC1CCCCC1Nc1ncc(S(N)(=O)=O)s1 (stereo not given)	1	-2
NCCc1nc(N2CCC[C@@H]2CO)c2ccccc2n1	6	4
Cn1c2ccccc2n2nc3nc[nH]c(=O)c3c12	10	3
COc1cc(Br)cc(CNCCc2ccccn2)c1O	1	5
O=C(CN1CCN(C(=O)c2ccco2)CC1)Nc1ccc(Cl)cn1	-6	-5
COc1cccc(C=NC(C)c2sc(C)nc2C)c1O (stereo not given)	8	8
COc1ccc2c(c1)C(C)(Cc1ccc(Cl)c(Cl)c1)C(=O)N2 (stereo not given)	4	3
CCCCCCNC(=O)c1ccc(CSc2nc(Cl)cc(N3CCCCC3)n2)cc1	13	20
O=C(Cc1cccs1)N1CCCN(c2nc(Cc3ccccc3)nc3onc(-c4ccccc4)c23)CC1	4	0
O=C1NCCN(Cc2ccoc2)C1CC(=O)N1CCN(Cc2cccs2)CC1 (stereo not given)	17	3
COc1cc(-c2cnc3ccc(NCc4ccc(C)cc4C)nn23)cc(OC)c1OC	-2	-6
COCCCNC(=O)c1sc2nc(-c3ccccc3)cn2c1C	3	0

(further entries)
SMILES	NPYLR7 ag	NPYLR7 ag max-min
Nc1nccnc1C(=O)OCc1cc(=O)n2ccsc2n1	9	2
Clc1ccc(Cc2nc(CSc3nc(-c4ccccc4)cs3)cs2)cc1Cl	-1	12
O=C(NC1CCN(c2ccccc2C(=O)NCC2CCCCC2)CC1)c1ccccc1Cl	2	4
CCN(C(=O)C(C)Sc1nnc(-c2ccncc2)n1C)C1CCCCC1 (stereo not given)	5	6
CC(C)c1cccc(Nc2cc(C3(C(=O)NCc4cccnc4)CC3)ccn2)c1	-15	-14
Cc1noc(C(C)C)c1C(=O)NC1CCCCCCC1	-2	-2
CN(CC1CCN(CCc2ccc(F)cc2)CC1)C(=O)c1n[nH]c2ccccc12	-2	-4
O=C(O)C1CC(=O)N(CCc2ccccc2)C(=Nc2ccccc2)S1 (stereo not given)	-3	0
CC(=O)Nc1scc(-c2cccs2)c1C(=O)OCC(=O)NC(C)C	1	-2
CCCc1[nH]n(-c2ccc(Cl)c(Cl)c2)c(=O)c1C1=C(N2CCC(C)CC2)C(=O)N(Cc2ccco2)C1=O	13	24
CCN1CCN(c2nc3c(c(=O)n(C)c(=O)n3C)n2CCSc2nc3ccccc3s2)CC1	-2	38
COc1ccc(-n2c(SCCC(N)=O)nc3ccccc32)cc1	8	2

Seven entries picked at random from the list so far:
SMILES	NPYLR7 ag	NPYLR7 ag max-min
CCN1CCN(c2nc3c(c(=O)n(C)c(=O)n3C)n2CCSc2nc3ccccc3s2)CC1	-2	38
Clc1ccc(Cc2nc(CSc3nc(-c4ccccc4)cs3)cs2)cc1Cl	-1	12
CCCc1[nH]n(-c2ccc(Cl)c(Cl)c2)c(=O)c1C1=C(N2CCC(C)CC2)C(=O)N(Cc2ccco2)C1=O	13	24
CC(C)c1cccc(Nc2cc(C3(C(=O)NCc4cccnc4)CC3)ccn2)c1	-15	-14
O=C(O)C1CC(=O)N(CCc2ccccc2)C(=Nc2ccccc2)S1 (stereo not given)	-3	0
CN(CC1CCN(CCc2ccc(F)cc2)CC1)C(=O)c1n[nH]c2ccccc12	-2	-4
COc1ccc(-n2c(SCCC(N)=O)nc3ccccc32)cc1	8	2

Structures shown so far containing a CF3 group, in the order listed:
SMILES	NPYLR7 ag	NPYLR7 ag max-min
CCOC(=O)C(=O)N1CCCN(Cc2cc(=O)c(OCc3ccc(C(F)(F)F)cc3)co2)CC1	23	23
O=C(Nc1ccc(C(F)(F)F)cc1)c1nc(N2CCCC2)ncc1Cl	0	-1

Next entries:
SMILES	NPYLR7 ag	NPYLR7 ag max-min
CCCSc1ncc(CO)n1Cc1ccc(C)cc1	16	16
CSc1ncc(CN2CCC(n3nccc3NC(=O)Cc3ccccc3)CC2)cn1	-7	-8
C=CCN(CC(=O)N1N=C(c2cc(C)ccc2C)CC1c1cccc(F)c1)C1CCCC1 (stereo not given)	-8	-1
CC(NC(=O)CSc1nnc(NC2CC2)s1)c1ccco1 (stereo not given)	13	3
O=C(CSc1nnnn1-c1cccc(F)c1)NCc1ccccc1	-4	-3
Nc1ccc(O)c2ccccc12	-4	-6
O=C(NC1CC1)c1ccc(N2CCC(C(O)c3ccccc3)CC2)nc1 (stereo not given)	-13	-15
Cc1sc2nc(C(C)OC(=O)CCCN3C(=O)NC4(CCCC4)C3=O)[nH]c(=O)c2c1C (stereo not given)	8	7
CCCc1c(C(=O)O)cnn1-c1ccc(F)cc1	-7	-7
COCCS(=O)(=O)NCCc1c[nH]c2cccc(C)c12	-3	-3
COc1ccc(CCOC(=O)[C@@H]2CCCN2C(=O)CCCCC2CCSS2)cc1OC (stereo not given in full)	-6	-11
Cc1ccc(C(=O)Cc2nnn(-c3ccccc3)n2)cc1	-2	-1

6 structures from above, arranged by molar mass, descending:
SMILES	NPYLR7 ag	NPYLR7 ag max-min
CCN1CCN(c2nc3c(c(=O)n(C)c(=O)n3C)n2CCSc2nc3ccccc3s2)CC1	-2	38
COCCn1c(C)cc(O)c(C(c2cccnc2)N2CCC(C)CC2)c1=O (stereo not given)	6	0
O=C(O)C1CC(=O)N(CCc2ccccc2)C(=Nc2ccccc2)S1 (stereo not given)	-3	0
O=C(CN1CCN(C(=O)c2ccco2)CC1)Nc1ccc(Cl)cn1	-6	-5
COc1cccc(C=NC(C)c2sc(C)nc2C)c1O (stereo not given)	8	8
CCCc1c(C(=O)O)cnn1-c1ccc(F)cc1	-7	-7

More compounds
SMILES	NPYLR7 ag	NPYLR7 ag max-min
COc1ccc(-c2csc(=Nc3cc(OC)cc(OC)c3)n2-c2ccccc2Oc2ccccc2)cc1	-4	-4
O=c1cnnc(N/N=C\C=C\c2ccccc2)[nH]1	-8	-17
COC(=O)c1ccc(NC(=O)CCCn2nc(-c3ccc(C)cc3)ccc2=O)cc1	-8	-11
CC(C)C1N=C2c3ccccc3N=C(SCc3cc(=O)n4ccccc4n3)N2C1=O (stereo not given)	7	5
Cc1cccc2c1NC1(CCN(Cc3ccoc3)CC1)NC2=O	-3	1
Cn1cc(N2CCCC(NC(=O)NCC(O)C3CC3)C2)cn1 (stereo not given)	1	0
CCOC(=O)N1CCC(C(=O)Nc2nc3ccccc3[nH]2)CC1	12	5
O=S(=O)(c1cc(Cl)cc(Cl)c1O)N1CCCC1	0	-4
COc1ccc(C2NC(=O)NC3=C2C(=O)N(CCC2=CCCCC2)C3)cc1 (stereo not given)	13	19
CC(=O)c1ccc(N2C(=O)CC(SC(N)=N/N=C(/C)c3cccs3)C2=O)cc1 (stereo not given)	-5	-3
CSc1ccc(NC(=O)N2CCCN(c3nc(Cc4ccc(C)cc4)ns3)CC2)cc1	14	20
Cn1ccnc1P(=O)(O)c1ccccc1	6	11

Profiles, looked up by structure. Screens in order: NPYLR7 ag	NPYLR7 ag max-min
Listed for CC(C)C1N=C2c3ccccc3N=C(SCc3cc(=O)n4ccccc4n3)N2C1=O (stereo not given) = 7	5
Listed for COc1ccc(-c2csc(=Nc3cc(OC)cc(OC)c3)n2-c2ccccc2Oc2ccccc2)cc1 = -4	-4
Listed for COc1ccc(C2NC(=O)NC3=C2C(=O)N(CCC2=CCCCC2)C3)cc1 (stereo not given) = 13	19
Listed for CSc1ccc(NC(=O)N2CCCN(c3nc(Cc4ccc(C)cc4)ns3)CC2)cc1 = 14	20
Listed for CCOC(=O)N1CCC(C(=O)Nc2nc3ccccc3[nH]2)CC1 = 12	5

Continued.
SMILES	NPYLR7 ag	NPYLR7 ag max-min
Cc1cn(-c2ccc(Br)cc2)[nH]c1=O	-1	-4
Oc1oc(-c2cccc3ccccc23)nc1C=Nc1ccc(F)c(Cl)c1	-2	-8
COC(=O)c1ccc(NC(=O)c2nnn(-c3ccccc3)c2C)cc1	3	6
Cn1c(=O)n(Cc2ccc(Br)cc2)c(=O)c2c1nc1oc(C(C)(C)C)cn12	4	0
COc1cccc(NC(=O)CCC2CCN(C(=O)c3cc(C)oc3C)CC2)c1	17	3
Oc1ccc(C=NNc2ccc(C(F)(F)F)cn2)cc1O	0	-2
O=C1NCC2(CCCN(C(=O)c3coc4c3C(=O)CCC4)CC2)O1 (stereo not given)	7	8
CCC(CC)C(CNC(=O)c1cnn(C)c1-n1cccc1)N1CCOCC1 (stereo not given)	-1	-3
Cc1ccc(C(=O)Nc2ccccc2CC(N)=O)cc1F	-1	-3
Cc1cc2c(cc1Cl)C(=O)CC1(CCN(C(=O)OCCSc3ccc(C(F)(F)F)cn3)CC1)O2	-6	-15
CCCCn1c(=O)c2c(nc3n(C(C)c4ccccc4)c(C)cn23)n(C)c1=O (stereo not given)	-8	-8
COc1ccc(/C=C2\SC(=S)N(c3ccc(C(=O)O)cc3)C2=O)cc1OC	-4	-10
Cc1ccc(-c2nn(CC(=O)N3CCc4ccccc43)c(=O)c3nc(C)sc23)c(C)c1	2	-1
CC(C)c1cc(C(=O)N2CCCC3(CC2)CN(C)C(=O)O3)no1 (stereo not given)	8	3
Cn1c(C2CCCCCN2)cc2ccccc21 (stereo not given)	2	5

Source: PubChem
